PMP22 txn prim: Cell-based coincidence reporter assay to measure PMP22 gene transcription in S16 Pmp22-F2sN cells - Primary screen. Potency, µM (titrated, usually from 57.5 µM), without a hit: top-dose activity change, negative = inhibition, usual class: inhibitors. hit rate 2% among 43,000. S16 Pmp22-F2sN Schwann cells (luciferase reporters placed in the Pmp22 gene), FLuc/NLuc coincidence luminescence, 24 h. AID 1508649, 2021; active = clear falling dose curves in both reporters; inconclusive = both reporters move, but less clearly or upward; inactive = either reporter flat; the % is the NLuc reporter signal; also: % is scaled to controls: 0 for no effect and ±100 for the full control effect; some results filed as inactive show a strong effect at the top dose
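Transcriptional readout in edited S16(c9) cells: two luciferases reported from the Pmp22 locus, measured in turn after 24 h compound incubation.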
HTT prom inh: Primary qHTS for Identification of Small Molecule Inhibitors of Huntingtin Promoter Activity; HEK293 HTT promoter firefly luciferase reporter (activity 0% = vehicle and -100% = no light), 24 h; Potency, µM (series often up to 57.5 µM), for inactives: at the top dose activity change, negative = inhibition, actives largely listed as inhibitors; hit rate 0.93% among 48,000; AID 1508623, 2021; active = well fitted inhibition curve with a large enough effect; inconclusive = small, poorly fitted or top-dose-only effect; inactive = no such curve, though single readings can be large or run the other way; also: nearly all actives have a fitted effect of over 50% in size
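Quantitative HTS used concentration series of up to 57.5 uM final on HEK293 luciferase reporter cells, 24 h at 37 degrees C. Readout was Dual-Glo firefly luminescence.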
Active calls of the source: *; ? = inconclusive; nt = no result given; [ ] = another dose, or the depositor's remark. Potency is read from the fitted curve at half-maximal effect.

Every second line gives: PMP22 txn prim, HTT prom inh
O=C(Cn1ncn2c(cc3sccc32)c1=O)NCCc1ccccc1
    15%, 5%
COc1ccc(Oc2nc3c(c(=O)n(Cc4ccccc4Cl)c(=O)n3C)n2C)cc1
    ?, ?
COc1ccc(NC(=O)c2cnc(N3CCCCC3)c3ccccc23)cc1Cl
    ?, ?
COc1ccc2c(c1)CC(NC(=O)Nc1c(C)cc(C)cc1C)CO2 (stereo unspecified)
    -1%, -1%
CCOc1ccc(NC(=O)[C@H]2O[C@@H]3OC(C)(C)O[C@@H]3[C@H]3OC(C)(C)O[C@H]32)cc1
    ?, ?
O=C(c1ccc2c(c1)N(Cc1ccccc1F)C(=O)c1ccccc1S2(=O)=O)N1CCCCCC1
    ?, -24%
Cc1ccc(CNC(=O)CSc2nc3ccsc3c(=O)n2Cc2ccccc2F)cc1
    ?, -1%
COc1ccc(-c2nc3sc(CCNC(=O)C(=O)Nc4ccccc4C#N)c(C)n3n2)cc1
    -25%, -4%
Cc1ccc(CN(Cc2ccco2)C(=O)COc2ccc(C(C)C)cc2)cc1
    ?, ?
CC(C)CN(CCCNC(=O)c1cc(-c2ccc(Br)s2)nc2ccccc12)CC(C)C
    ?, -23%
CCOC(=O)c1nc(Nc2ccc(C(C)=O)cc2)c2ccccc2n1
    ?, -20%
Cc1cc(-n2c(SCC(=O)NCc3ccccc3)nc3ccsc3c2=O)ccc1Cl
    -10%, -15%
CCN(CC)S(=O)(=O)c1ccc(NC(=O)[C@H](CCSC)N2Cc3ccccc3C2=O)cc1
    -2%, -20%
C[n+]1c2cc(N)ccc2cc2ccc(N)cc21 (tested in a mixture with another compound)
    nt, -29%
C[C@]12CC[C@H](O)CC1=CC[C@@H]1[C@H]2CC[C@]2(C)C(c3cccnc3)=CC[C@H]12
    nt, 1%[25.2 µM]
COc1ccc(-c2cn3cccnc3n2)cc1NC(=O)COc1ccccc1
    -39%, -1%
COC(=O)c1ccc(Cl)cc1NC(=O)Nc1nnc(N2CCCC2)s1
    -10%, 8%
COc1ccc(Cl)cc1S(=O)(=O)N1CCN(CC(=O)Nc2ccccc2C(F)(F)F)CC1
    -3%, ?
Cc1cc(C(=O)Nc2ccc(C(C)C)cc2)c2c(C)nn(-c3ccccc3)c2n1
    ?, 0%
CC(=O)N(CC(O)CO)c1c(I)c(C(=O)NCCO)c(I)c(C(=O)NCC(O)CO)c1I (stereo unspecified)
    nt, 5%

4 entries from above, field by field:
COc1ccc(-c2cn3cccnc3n2)cc1NC(=O)COc1ccccc1
  PMP22 txn prim: -39% | HTT prom inh: -1%
COC(=O)c1ccc(Cl)cc1NC(=O)Nc1nnc(N2CCCC2)s1
  PMP22 txn prim: -10% | HTT prom inh: 8%
COc1ccc(Cl)cc1S(=O)(=O)N1CCN(CC(=O)Nc2ccccc2C(F)(F)F)CC1
  PMP22 txn prim: -3% | HTT prom inh: ?
Cc1cc(C(=O)Nc2ccc(C(C)C)cc2)c2c(C)nn(-c3ccccc3)c2n1
  PMP22 txn prim: ? | HTT prom inh: 0%

Additional structures:
Every second line gives: PMP22 txn prim, HTT prom inh
O=C(NCCc1csc(-c2cccnc2)n1)c1ccc(F)c(F)c1
    -39%, -31%
Cc1ccc(OC(=O)CSc2nnc(-c3cccs3)o2)cc1
    4%, 29%
Cc1ccn2c(Nc3ccccc3C)c(-c3cccnc3)nc2c1
    2%, -19%
Cc1ccccc1-n1c(=O)c2ccccc2n(Cc2ccc(F)cc2)c1=O
    -10%, -23%
CCCCSc1ncnc2c1c(-c1ccccc1)cn2-c1cccc(F)c1
    -32%, -14%
COc1ccc(CNC(=O)C2CCN(c3nnc(-n4cccc4CNc4ccc(C)cc4)s3)CC2)c(OC)c1
    -20%, ?
Cc1ccc(CCNC(=O)c2cc3sccc3n2Cc2ccc(C)cc2)cc1
    -11%, -19%
COc1cc(-c2nnc(SCCOc3cc(C)cc(C)c3)o2)cc(OC)c1OC
    -8%, -7%
Cc1cc(Nc2ccc(Cl)cc2C)nc(-n2nc(C)cc2C)n1
    7µM*, -21%
CCOC(=O)CNC(=O)CSc1cn(CC(=O)N2CCCCCC2)c2ccccc12
    -20%, -3%
CCOC(=O)C1=C(CN2CCN(c3ccccc3F)CC2)NC(=O)NC1c1ccc(Cl)cc1 (stereo unspecified)
    ?, -8%
Cc1nnc(NC(=O)c2nc(SC(C)C)ncc2Cl)s1
    0%, -11%
CCc1nnc(SCc2nc(-c3ccc(OC)cc3)oc2C)c2cc3sccc3n12
    -9%, -1%
O=C(CSc1ccccc1)N1CCc2c([nH]c3ccccc23)C1c1ccc(Cl)cc1 (stereo unspecified)
    1%, ?
CC(=O)Nc1ccc(C2Nc3c(C)cc(C)cc3-c3cc(C)nn32)cc1 (stereo unspecified)
    2%, -10%[11.5 µM]
CCOc1ccc(CCNC(=O)c2sc3ncccc3c2-n2cccc2)cc1OCC
    ?, ?
COc1ccc(Br)cc1CNC(=O)Cn1ncn2nc(-c3cccs3)cc2c1=O
    -17%, 3%
COc1ccc(CN2CCc3c(c(=O)n4ncc(C(=O)N5CCN(c6ccccc6OC)CC5)c4n3C)C2)cc1
    ?, 1.8µM*
Cc1c(CNC2CCCCCC2)c(C(=O)O)c(C)n1Cc1c(F)cccc1Cl
    -16%, -22%
CCOc1cc2sc(N3CCC(C(=O)Nc4ccc(C(C)C)cc4)CC3)nc2cc1Br
    -5%, 70%[activator]
Cc1cccc(OC(C)C(=O)Nc2ncn[nH]2)c1 (stereo unspecified)
    10%, -14%
COc1ccc2nc(SCC(O)c3cccc(Br)c3)[nH]c2c1 (stereo unspecified)
    -14%, 7%
Cc1ccc(-c2nc(Cn3c(=O)cc(-c4ccccc4)c4c(C)nn(C)c43)c(C)o2)cc1
    ?, 0%
Cc1c(Cl)cccc1NC(=O)N1CCC(CN2CCOCC2)CC1
    ?, -10%
Cc1ccc(C)c(N2CCN(CCCNC(=O)c3ccc4nc(N5CCCCC5)sc4c3)CC2)c1
    ?, ?
COc1ccc(Cl)cc1C1CC(=O)Nc2cc3c(cc21)OCCO3 (stereo unspecified)
    2.5µM*, ?
CCOc1ccc(-c2c(C)nn3c(C)c(C(=O)NCC(C)c4ccccc4)cnc23)cc1OCC (stereo unspecified)
    17µM*, ?
COc1ccc(C(Cl)=C(c2ccc(OC)cc2)c2ccc(OC)cc2)cc1
    nt, 1%
CCOC(=O)c1cnc2ccc(OC)cc2c1Nc1ccc(OCc2ccccc2Cl)cc1
    ?, ?
COc1cc(NC(=O)C2CCN(c3nnc(C)c4c(C)n(-c5ccccc5)nc34)CC2)cc(OC)c1
    -12%, ?
CCCc1cc(=O)[nH]c(SCc2nc(-c3ccccc3F)no2)n1
    -4%, 9%
COc1cccc(Cn2c(CNC(=O)c3cc([N+](=O)[O-])ccc3Cl)nc3cccnc32)c1
    13µM*, -22%
CC(C)OC(=O)c1ccc(Cn2nnc3sc4c(c3c2=O)CCCC4)cc1
    10%, -15%
O=C(NC(=O)c1ccc(F)cc1)Nc1ccc(-c2cc(C(F)(F)F)nn2-c2ccccc2)cc1
    -1%, 1%
Cc1cccc(CSc2nc(-c3cccs3)ccc2C#N)c1
    ?, -29%
COc1ccc(-c2nnc(SCC(=O)Nc3ccc(Cl)cc3)s2)cc1
    -29%, ?
Cc1cc(C)c(Cn2c3ccccc3c3cnn(CC(=O)NCCc4ccccc4)c(=O)c32)c(C)c1
    ?, -16%
CCS(=O)(=O)N1CCc2cc(C(=O)NCc3ccccc3)ccc21
    -38%, 6%
CCn1c2c(c(=O)n3ncc(C(=O)N4CCN(c5ccc(Cl)cc5)CC4)c13)CN(Cc1ccc(OC)cc1)CC2
    ?, ?
COc1ccccc1-c1nn2c(=O)cc(CN3CCN(C(=O)Nc4ccc(C)cc4Cl)CC3)nc2s1
    ?, -5%

Shown as a hit in HTT prom inh (from the list above):
SMILES	HTT prom inh
COc1ccc(CN2CCc3c(c(=O)n4ncc(C(=O)N5CCN(c6ccccc6OC)CC5)c4n3C)C2)cc1	1.8µM*

Next part.
Every second line gives: PMP22 txn prim, HTT prom inh
OC[C@@H](O)[C@@H](O[C@@H]1O[C@H](CO)[C@H](O)[C@H](O)[C@H]1O)[C@H](O)[C@@H](O)CO
    nt, 6%
CCCN(CCC)CC(O)Cn1cc(/C=C/C(=O)c2ccc(OC)cc2)c2ccccc21 (stereo unspecified)
    ?, ?
CCC1CN(C(=O)N2CCC(C(=O)NCCN(CC)CC)CC2)c2ccccc2O1 (stereo unspecified)
    -19%, -1%
COc1ccc(-c2nc(C)c(CCNC(=O)c3c(F)cccc3F)s2)cc1
    18%, -9%
O=c1ccc(-c2ccccc2)nn1Cc1ccc(F)cc1Cl
    ?, -31%
Cc1ccc(NC(=O)C(=O)NCC(c2cccnc2)N2CCOCC2)cc1C (stereo unspecified)
    14%, -22%
Cc1ccc(NC(=O)CSc2nc3n[nH]c(C)c3c(=N)n2-c2cccc(C)c2)cc1
    ?, ?
Cc1cccc(C)c1NC(=O)C1CCCN1S(=O)(=O)c1cccc2nsnc12 (stereo unspecified)
    -12%, -16%
CO[C@H]1C=CC=C(C)C(=O)NC2=CC(=O)C(NCCN(C)C)=C(C[C@@H](C)C[C@H](OC)[C@@H](O)[C@@H](C)C=C(C)[C@@H]1OC(N)=O)C2=O
    nt, ?
CC(C)COc1ccc(C(=O)N2CCCCC2CCN2CCCCC2)cc1 (stereo unspecified)
    -30%, -8%
Cc1c(NC(C)C)c(=O)n(-c2ccccc2)n1C
    nt, 3%
Cc1c(NC(=O)Nc2ccc(F)c(Cl)c2)c(=O)n(-c2ccccc2)n1C
    39%, -12%
COc1ccc(C2c3c(n(C)c4ccccc34)C(=O)N2CC(=O)Nc2ccc(C)cc2Cl)cc1 (stereo unspecified)
    0%, ?
CCc1ccccc1NC(=O)c1cnn2c(C(F)(F)F)cc(-c3ccc(OC)c(OC)c3)nc12
    -35%, -9%
COc1ccc(CCNC(=O)CN2C(=O)COc3ccc(S(=O)(=O)N4CCCC4)cc32)cc1OC
    -20%, -15%
O=C(CN1C(=O)C(c2ccc(F)cc2)=NC12CCCCCC2)Nc1ccc(F)c(Cl)c1
    ?, -2%
COC(=O)c1cc(S(N)(=O)=O)ccc1OC
    nt, -1%
COc1ccc(CN2C(=O)c3ccccc3C2C(=O)NCCc2ccccc2)c(OC)c1 (stereo unspecified)
    4%, 8%
O=C(Nc1cccc(C(=O)OCc2cc(=O)n3nc(C4CC4)sc3n2)c1)c1ccccc1
    1%, -7%
COc1ccc(OC)c(NC(=O)CSC2=Nc3ccccc3C3=NC(CC(=O)NCc4ccco4)C(=O)N23)c1 (stereo unspecified)
    -79%, ?
O=C(CC1N=C2c3ccccc3N=C(SCC(=O)Nc3cccc(C(F)(F)F)c3)N2C1=O)NCc1cccs1 (stereo unspecified)
    ?, -22%
COc1ccc(Br)cc1CN1C(=O)c2ccccc2C1C(=O)NC1CCCCCC1 (stereo unspecified)
    -11%, -4%
O=C(CN1CCSc2ccccc21)N1CCN(c2ccc(F)cc2)CC1
    -24%, -18%
CCN(CC)CCCNC(=O)CN1N=C(c2ccc(OC)cc2)CCC1=O
    ?, 4%
CCCCOC(=O)c1ccc(Nc2ncnc3[nH]ncc23)cc1
    -86%, -3%
CCOC(=O)C1CCCN(C(=O)Cn2ncc3c4ccccc4n(Cc4ccccc4)c3c2=O)C1 (stereo unspecified)
    -6%, -4%
Cc1ccc(N(CC(=O)NCc2ccc(F)cc2)S(=O)(=O)c2c(C)nn(C)c2C)cc1
    -7%, -8%
O=C(CSc1ncc(-c2ccccc2)[nH]1)Nc1cccc(Br)c1
    -70%, -11%
Cc1ccc(C)c(NC(=O)N2CCN(c3nnc(C)c4c(C)n(-c5ccccc5)nc34)CC2)c1
    -21%, -13%
CCOc1ccc(CCNC(=O)c2ccc3c(c2)N(Cc2ccc(C)cc2)CCS3)cc1
    -18%, -30%
COc1ccc(C(=O)N(c2ccc(C)cc2)S(=O)(=O)c2ccc(C)cc2)cc1
    ?, ?
COc1ccc(S(=O)(=O)N(CCc2ccccc2)CC(=O)Nc2cc(C)cc(C)c2)cc1OC
    ?, ?
Cc1ccccc1Cn1c2ccccc2c2cnn(CC(=O)N3CCC(C)CC3)c(=O)c21
    ?, -20%
CCOC(=O)c1nnn(CC(=O)NC(=O)Nc2ccccc2F)c1C(=O)OCC
    4%, -42%
CCCCNc1nc2c(S(=O)(=O)c3ccc(C)cc3)nnn2c2ccsc12
    0%, -7%
COc1ccc(C(=O)NCC(c2ccc(N(C)C)cc2)N2CCCC2)c(OC)c1 (stereo unspecified)
    -33%, 4%
COC(=O)c1c(SC)nc2ccccc2c1OCc1ccc(Cl)cc1
    ?, -38%
O=C(COc1ccc(Cl)cc1)OCc1cc(=O)n2nc(C3CCCCC3)sc2n1
    14%, 1%
O=C(c1ccc2c(c1)N(Cc1ccc(F)cc1)C(=O)c1ccccc1S2(=O)=O)N1CCN(Cc2ccccc2)CC1
    ?, ?
CCOC(=O)c1c(C)[nH]c(C)c1S(=O)(=O)NCC(=O)Nc1cccc(C(F)(F)F)c1
    -19%, -25%
